High-throughput results deposited in PubChem BioAssay by Johns Hopkins Ion Channel Center.
KCNQ2 pot = potentiators of rat KCNQ2 potassium channel | B-score at 10 µM | CHO-K1 KCNQ2, FluxOR thallium flux fluorescence; stronger effect = higher value | Potassium voltage-gated channel subfamily KQT member 2 (Rattus norvegicus), O88943 | 310,000 tested, 0.54% active;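 active = fluorescence ratio B-score at least 3 SD of library B-scores, with initial fluorescence B-score within 3 SD, cut at about 5.3 in these data; same plate scores as AID 2156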;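 note: B-score of peak minus minimum over baseline fluorescence ratio after K+ and Tl+ stimulus; positive B-score means potentiation of KCNQ2 with more thallium influx and brighter signal; only the inactives scoring about 0 or higher are listed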
Target sequence (O88943 whole entry, looked up): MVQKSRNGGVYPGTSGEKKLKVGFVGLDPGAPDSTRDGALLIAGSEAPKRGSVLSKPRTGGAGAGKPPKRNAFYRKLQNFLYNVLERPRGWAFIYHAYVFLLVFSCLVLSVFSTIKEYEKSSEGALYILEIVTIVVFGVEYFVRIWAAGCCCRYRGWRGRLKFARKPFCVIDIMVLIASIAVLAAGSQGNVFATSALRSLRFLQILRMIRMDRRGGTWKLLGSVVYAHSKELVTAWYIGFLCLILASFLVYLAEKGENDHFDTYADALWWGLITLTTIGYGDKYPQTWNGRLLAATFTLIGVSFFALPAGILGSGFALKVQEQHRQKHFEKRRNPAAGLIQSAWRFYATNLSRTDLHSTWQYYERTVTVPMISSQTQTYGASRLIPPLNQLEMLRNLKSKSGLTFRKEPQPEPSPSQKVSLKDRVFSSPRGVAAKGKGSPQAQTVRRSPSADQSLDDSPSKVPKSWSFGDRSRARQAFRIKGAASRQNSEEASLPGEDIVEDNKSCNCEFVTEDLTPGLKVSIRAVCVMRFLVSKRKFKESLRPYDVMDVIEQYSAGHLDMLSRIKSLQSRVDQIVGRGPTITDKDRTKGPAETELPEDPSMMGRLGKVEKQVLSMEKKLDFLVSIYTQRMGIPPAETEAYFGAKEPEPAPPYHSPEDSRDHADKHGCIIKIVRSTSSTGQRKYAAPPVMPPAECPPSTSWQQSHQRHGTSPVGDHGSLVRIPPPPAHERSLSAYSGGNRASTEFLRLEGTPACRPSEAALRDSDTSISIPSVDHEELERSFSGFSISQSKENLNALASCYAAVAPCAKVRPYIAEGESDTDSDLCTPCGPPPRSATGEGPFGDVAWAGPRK
KCNQ2 pot baseline = second read-out of KCNQ2 pot, no call of its own (marks repeat the call); B-score; compound at 10 µM; measured here: initial fluorescence intensity artifact check;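 brightness before thallium and not channel activity; 0 = typical well and far values either way flag optical interference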
The depositor's hits bear a star; nt = not tested or not shown. This is a subset, so the mix of outcomes need not match the whole.

SMILES	KCNQ2 pot	KCNQ2 pot baseline
COC(=O)c1c(NC(=O)Cn2nc(C(F)F)cc2C(F)F)sc(C)c1C	0.88	-0.07
CC(=O)N1CCN(S(=O)(=O)c2ccc(C)cc2)C1C (stereo not given)	0.1	-0.45
CC(C)OC(=O)/C(=C\c1ccccc1)NC(=O)c1ccccc1	-5.6	nt
CSc1cccc(N2CC(C(=O)Nc3cccc(S(=O)(=O)N4CCCC4)c3)CC2=O)c1 (stereo not given)	0.11	-0.82
CN(C)c1ccc(NC(=O)CSc2n[nH]c(-c3ccco3)n2)cc1	1	0.24
C/C(Cn1nnc([N+](=O)[O-])n1)=N\NC(=O)c1ccc(Cl)c(Cl)c1	1.3	0.02
O=C(O)c1cccc(N2CCCC2)c1	0.06	-0.05
C/C=C/C(=O)N1CC2(CC(c3cccc(NC(=O)CCCCC)c3)=NO2)C[C@H]1C(N)=O (stereo not given in full)	1.4	0.58
CC(C)c1ccc(-c2nnn(CCC(=O)O)n2)cc1	0.58	-0.14
CCC1C(=O)NCCN1C(=O)c1ccccc1OC1CCN(S(C)(=O)=O)CC1 (stereo not given)	0.77	2.5
O=C(c1ccc(S(=O)(=O)Cc2ccccc2F)c([N+](=O)[O-])c1)N1CCCC1	1.9	2.8
CC(C)CCCN1CCN=C1N(C)C	2.8	1.5
CC(C)CN(CCCNC(=O)CC1Oc2ccccc2NC1=O)CC(C)C (stereo not given)	0.44	0.4
CCc1nc2ccccc2[nH]c1=O	1.9	0
Cc1ccc(C)c(CNC(=O)Nc2ccccc2)c1	0.04	-0.01
Cc1cc(-c2nc3ccccc3[nH]2)ccc1N	0.42	1
CCc1cccc2c1NC(=O)C21OCCO1	0.01	-1.7
O=C(Nc1cc(C(F)(F)F)ccc1Cl)c1cccc(N2C(=O)CCC2=O)c1	0.64	1.1
COc1ccc(CNCc2ccc(F)cc2)c(OC)c1	0.43	-1.6
COC(=O)Cc1ccc(NC(=S)NCc2cccc(OC)c2)cc1	0.53	-0.41
NC1=NC(=O)S/C1=C\c1ccc(F)cc1	0.96	0.13
Cc1noc(C)c1C(=O)N(C)Cc1ccccc1	1.4	-0.59
O=C(CSc1nc2ccccc2c(=O)[nH]1)c1ccccc1	0.89	0.1
O=C(NC12CC3CC(CC(C3)C1)C2)N1CC2Cc3cccc(=O)n3C(C2)C1 (stereo not given)	0.03	-1
Cn1nnc2c(N3CCCCC3)nccc21	0.85	0.81
Cc1cc(NCC2CCCO2)n2c(nc3ccccc32)c1C#N (stereo not given)	0.13	0.82
O=C(O)CCCc1nc(-c2ccc(Cl)cc2)no1	1.3	0.08
COc1ccc(C(=O)CC(c2ccccc2)S(=O)(=O)c2ccc(C)cc2)cc1 (stereo not given)	0.83	0.42
Cc1ccc(N(CC(=O)O)S(C)(=O)=O)cc1	1.2	1.4
COc1ccc(C(C(=O)NC2CCCC2)N(Cc2ccc(C)cc2)C(=O)c2ccn[nH]2)cc1OC (stereo not given)	0.84	-1.6
S=c1[nH]nc(CSc2nc3ccccc3s2)n1C1CCCCC1	2.7	0.24
O=C1CC(c2ccc(Cl)c([N+](=O)[O-])c2)c2ccc3ccccc3c2N1 (stereo not given)	1.5	-0.82
CCCOc1ccc(CCCN=C(N)N)cc1Cl	0.25	0.25
CN(Cc1nccn1C)C(=O)CC1C(=O)NCCN1CC(c1ccccc1)c1ccccc1 (stereo not given)	1.4	-0.18
CC(C)CN1CN(Cc2ccccc2)CNC1=S	0.61	-0.39
COc1cc2nc(N(C)C)nc(N)c2cc1OC	1.2	0.68
O=C(/C=C/c1ccccc1)Nc1cc(NC(=O)/C=C/c2ccccc2)cc(C(=O)O)c1	2.2	-0.35
CCOc1ccccc1CNC(=O)c1nn(C)c2c1CS(=O)(=O)c1ccccc1-2	1.6	-1.8
O=C(N[C@@H](Cc1ccc(O)cc1)C(=O)O)c1ccncc1	1.2	0.22
O=C(NCCN1CCOCC1)c1ccc2c(c1)N(Cc1ccccc1)C(=O)c1ccccc1S2	0.21	0.07
Cc1oc(C(N)=O)nc1-c1ccccc1	2	-2.9
COc1ccc(CCN(C)C(=S)Nc2ccc(SC(F)F)cc2)cc1OC	1.1	1.2
CCOC(=O)CN(Cc1ccccc1)S(=O)(=O)c1ccc(NC(C)=O)cc1	1.3	-0.02
CC(=O)CCC(=O)OCC(=O)Nc1ccc(SC(F)F)cc1	1.5	-1.6
COc1cccc(C(=O)N/N=C(\C)c2cccc(NC(=O)c3ccc(F)cc3)c2)c1OC	1.6	0.48
O=C(N/N=C/c1cccc(Oc2ccccc2)c1)c1ccncc1	1.1	1.6
CC(=O)c1cccc(NC(=O)C2CCCN(S(=O)(=O)c3cccc4cccnc34)C2)c1 (stereo not given)	0.38	-0.6
O=C(NCCCN1CCCCCC1)c1ccc(N2CCCC2=O)cc1	0.13	-1.4

Complete entries from above. Screens in order: KCNQ2 pot	KCNQ2 pot baseline
`CC(C)OC(=O)/C(=C\c1ccccc1)NC(=O)c1ccccc1` in the list: -5.6	nt
`O=C(NCCCN1CCCCCC1)c1ccc(N2CCCC2=O)cc1` in the list: 0.13	-1.4
`CC(C)CN(CCCNC(=O)CC1Oc2ccccc2NC1=O)CC(C)C` (stereo not given) in the list: 0.44	0.4
`CCc1nc2ccccc2[nH]c1=O` in the list: 1.9	0

(listing goes on)
SMILES	KCNQ2 pot	KCNQ2 pot baseline
CCCSc1ncnc2c1oc1ccccc12	0.34	-0.17
Cc1cccc(C(=O)N(CC(=O)Nc2sc(C)c(C)c2C(N)=O)C2CCCC2)c1	0.37	1.4
Clc1nc2c(-c3ccccc3)nnn2c2ccccc12	0.33	-3.4
O=C(CCc1nnc2ccc(N3CCCCC3)nn12)NCc1ccco1	0.03	0.84
CCOc1ncccc1C(=O)OCC(=O)N(CC(C)C)C1CCS(=O)(=O)C1 (stereo not given)	0.85	0.77
CCN(CC)CCCN(Cc1cc2cc3c(cc2[nH]c1=O)OCO3)C(=S)Nc1ccccc1OC	2.4	-0.66
CCn1cc(-c2cc(C(=O)O)c3ccccc3n2)c(C)n1	0.45	-0.82
Cc1cc(C)cc(NC(=O)C2C3C=CC4(O3)C2C(=O)N(CCCN2CCCC2)C4C(=O)NC2CCCC(C)C2C)c1 (stereo not given)	0.43	-0.06
O=C(O)CSCCCC(=O)Nc1ccc(Br)cc1	1	-2.6
NC(=O)C1=C[C@@H](c2ccc(C(F)(F)F)cc2)C[C@@H](OCc2ccc(CO)cc2)O1	1.1	-0.81
COC(=O)C[C@H]1c2cc(F)ccc2S(=O)(=O)N1c1ccc(N(C)C)cc1	0.8	-3.2
CCc1cccc2c(C=C(C#N)C#N)cn(CC(=O)N3CCCC3)c12	0.27	1.4
Fc1ccccc1Cc1noc(CN2CCN(Cc3ccc4c(c3)OCO4)CC2)n1	0.08	0.12
CN1C(=O)CC(N2CCC(C(N)=O)(N3CCCCC3)CC2)C1=O (stereo not given)	1.8	-0.49
Cc1cc(C(=O)NCCN2CCOCC2)ccc1[N+](=O)[O-]	1.3	-0.68
COc1cc(C(=S)N2CCCC2)ccc1OS(=O)(=O)c1ccc(NC(C)=O)cc1	1.8	-0.41
O=C(Nc1ccc(OCc2ccccc2)cc1)Nc1cccnc1	7.2*	-0.85*
COC(=O)c1ccc(/C=N/NC(=O)c2ccc3nc[nH]c3c2)cc1	0.07	-0.2
C[C@H](NC(=O)N1CCn2c1nc1ccccc12)C(=O)NC1CC1	1.1	0.11
O=C(NNC(=O)c1ccc(Br)s1)NC1CCCCC1	0.26	-1.3
COCCNc1nc(N)c([N+](=O)[O-])c(NCc2ccccc2)n1	1.4	-1.2
BrC(=C\c1ccccc1)/C=N/Nc1ccc2nncn2n1	0.3	0.31
COc1cc2[nH]c(=S)nc(NCc3ccccc3)c2cc1OC	0.54	1.6
COc1ccc(-c2cn[nH]c2C)cc1OC	0.76	-0.26
Cc1cc2nc(N)sc2cc1[N+](=O)[O-]	0.38	1.2
O=C(NC1CCCCC1)C(c1ccccc1)N1CCOCC1 (stereo not given)	0.95	1.7
Cc1ccc(S(=O)(=O)N(C)S(=O)(=O)c2ccc(C)cc2)cc1	0.53	-0.52
CCOc1c(Br)cc(C(N)=O)cc1OCc1ccccc1	0.32	-0.01
CCn1c(Cc2ccccc2)nnc1SCc1ccc([N+](=O)[O-])cc1	1.4	0.35
O=C(Nc1ccccc1Cl)c1c(F)c(F)c(F)c(F)c1F	0.37	0.94
CN(C)CCNC=C(C(=O)Nc1ccc(Cl)cc1Cl)C(=O)Nc1ccc(Cl)cc1Cl	0.69	-1.3
O=C1c2cccc(OCC(=O)N3N=C(c4cccs4)CC3c3ccc(F)cc3)c2CCN1Cc1cccnc1 (stereo not given)	0.16	-0.01
Cc1cc(C)cc(N(CC(=O)Nc2c(C)n(C)n(-c3ccccc3)c2=O)S(C)(=O)=O)c1	0.14	0.92
COc1ccc(C)cc1Nc1nc(N)c2cc(OC)c(OC)cc2n1	0.01	-1.1
Cc1cc(C)c(NC(=O)Cn2cc3c(n2)CCCC3)c(C)c1	2.9	-0.75
Cc1cc(OCC(=O)Nc2cccc(S(=O)(=O)NC3=NCCCCC3)c2)ccc1Cl	1.8	1.1
Cc1cc(C(F)(F)F)nc(SCC(=O)NC2CC3CCC2C3)n1 (stereo not given)	6*	-0.41*
CC(=O)OCc1c(C(F)(F)F)nn(C)c1Oc1ccccc1	0.75	-0.77
Cc1cccc(C)c1N(CC(=O)N1CCOCC1)S(C)(=O)=O	0.91	1.2
OC(C#CCN1CCOCC1)(c1ccccc1)C1CCCCC1 (stereo not given)	0.36	0.57
COc1ccc(CCNC(=O)Cc2cccs2)cc1OC	0.59	-0.72
C=CCOC(=O)C1=C(C)NC(=O)NC1/C=C/c1ccccc1OC (stereo not given)	0.66	1.5
Cc1nn(C)c(C)c1NC(=O)c1ccc(Cl)cc1	0.08	0.56
O=C(O)c1cccnc1-c1ncccc1C(=O)O	1.4	-0.23
Cc1cccc(C)c1NC(=S)N/N=C/c1c(Cl)cccc1Cl	0.09	1.2
CC1(C)CC(=O)C(=Cc2cn(CCC#N)nc2-c2ccc(Cl)cc2)C(=O)C1	3.8	-0.2
Cc1c(NC(=O)c2nn3c(C(F)(F)F)cc(-c4ccccc4)nc3c2Br)c(=O)n(-c2ccccc2)n1C	0.71	0.02
COc1ccc(NC(=O)c2ccccc2CC[N+](=O)[O-])cc1	0.19	0.09
Cc1c(CC(=O)NCCC(C)C)c(=O)oc2cc3c(cc12)CCC(C)(C)O3	0.57	0.57
OCCNc1nnc(-c2ccccc2)c(-c2ccccc2)n1	2.9	0
CC(=O)N1CCCC1(C(=O)O)c1ccccc1 (stereo not given)	1.1	0.84
COc1cc(C(=O)NCc2ccc(-n3cccc3)cc2)cc(OC)c1OC	0.13	-0.27
CC(=O)c1cccc(S(=O)(=O)NCCC(=O)O)c1	0.12	-0.3
O=C(Nc1cc(S(=O)(=O)N2CCOCC2)ccc1N1CCOCC1)c1cccc(S(=O)(=O)N2CCCCC2)c1	0.04	-0.9
CCCCc1nc2cc(C(=O)N3CCCCC3CCNC(C)=O)ccc2o1 (stereo not given)	1.3	0.82
c1ccc(C2=Nn3c(nnc3-c3ccco3)SC2)cc1	0.34	0.01
Cc1ccc(C(=O)N/C(=C\c2ccc(Cl)cc2)C(=O)NCC2CCCO2)cc1 (stereo not given)	0.18	1.2
O=C(Nc1ccncc1Cl)c1ccncc1	0.83	-0.41
COc1ccccc1NC1=CC(=O)CC(c2ccccc2)C1 (stereo not given)	0.01	-0.96
CC1CC(C)CN(CCCNC(=O)CCC(=O)N2CC(C)Oc3ccccc32)C1 (stereo not given)	0.02	-0.04

Some of the entries so far, with values under each structure.
Results follow in this order: KCNQ2 pot, KCNQ2 pot baseline
COc1cc(C(=O)NCc2ccc(-n3cccc3)cc2)cc(OC)c1OC
 : 0.13, -0.27
O=C(Nc1cc(S(=O)(=O)N2CCOCC2)ccc1N1CCOCC1)c1cccc(S(=O)(=O)N2CCCCC2)c1
 : 0.04, -0.9
Cc1c(CC(=O)NCCC(C)C)c(=O)oc2cc3c(cc12)CCC(C)(C)O3
 : 0.57, 0.57

A different layout for some results above:
O=C(Nc1cc(S(=O)(=O)N2CCOCC2)ccc1N1CCOCC1)c1cccc(S(=O)(=O)N2CCCCC2)c1
  KCNQ2 pot: 0.04
  KCNQ2 pot baseline: -0.9

CC(=O)N1CCCC1(C(=O)O)c1ccccc1 (stereo not given)
  KCNQ2 pot: 1.1
  KCNQ2 pot baseline: 0.84

The listing continues:
SMILES	KCNQ2 pot	KCNQ2 pot baseline
COc1cc(C(=O)NCC(C)(C)CNC(=O)c2cc(OC)c(OC)c(OC)c2)cc(OC)c1OC	0.74	-0.58
Cc1ccc(NC(=O)C2CCN(S(=O)(=O)c3ccc4c(c3)OCCO4)CC2)c(O)c1	0.06	2
CNC(=O)CSc1nnc(-c2ccccc2F)n1CCc1ccccc1	1	0.82
CN1C(=O)NC2(O)C(=O)c3ccccc3C12O (stereo not given)	0.43	0.08
O=C(CCCc1ccccc1)NCCc1ccccc1	0.48	0.62
COc1ccc(CCN2C(=O)C3C4CC(C5C(C(=O)O)=NOC45)C3C2=O)cc1OC (stereo not given)	1.3	1.3
O=c1cc(CSc2nnnn2-c2ccccc2)nc2nc[nH]n12	1	0.02
CCN1CCN(C(=O)C(C)N(c2ccc(C)cc2)S(C)(=O)=O)CC1 (stereo not given)	0.18	-0.57
CCNc1nc(NCC)nc(N/N=C/c2ccc(N(C)C)cc2)n1	1.7	-0.49
CCS(=O)(=O)Nc1cccc(-c2ccc3nnc(C)n3n2)c1	0.21	1.4
N#Cc1ccsc1NC(=O)COC(=O)c1cc(Br)ccc1O	1.4	0.66
